Bioassay records: PubChem BioAssay, National Center for Advancing Translational Sciences (NCATS)
Vaccinia mCherry – vaccinia inhibition (mCherry reporter) | Vaccinia virus mCherry reporter infection, fluorescence; about a quarter of the inactives have no number | Potency, µM (top dose mostly 36.5 µM), inactives show top-dose activity change, negative = inhibition, usual class: inhibitors | 310,000 compounds, 0.63% hits; active = well fitted inhibition curve with a large enough effect; inconclusive = small, poorly fitted or top-dose-only effect; inactive = no such curve, though single readings can be large or run the other way; tested in A549 cells; also: nearly all actives have a fitted effect of over 35% in size; inactives centre near -10
Vaccinia Venus – vaccinia inhibition (Venus reporter). Vaccinia virus Venus reporter expression, fluorescence. Potency, µM (series often up to 36.5 µM), for the others: at the top dose activity change, negative = inhibition, usual class: inhibitors. 330,000 compounds, 0.46% hits; active means well fitted inhibition curve with a large enough effect; inconclusive means small, poorly fitted or top-dose-only effect; inactive means no such curve, though single readings can be large or run the other way; tested in A549 cells; also: nearly all actives have a fitted effect of over 30% in size; inactives centre near -10
Numbers without * were called inactive; i = inactive; ? = inconclusive; · = no result given; [ ] = another dose, or the depositor's remark. % is scaled to controls: 0 for no effect and ±100 for the full control effect; potency is read from the fitted curve at half-maximal effect.

SMILES | Vaccinia mCherry | Vaccinia Venus
O=C(CSc1nc2ccccc2o1)N1CCN(S(=O)(=O)c2ccc3ccccc3c2)CC1 | -10% | 1%
Cc1cc(C)cc(C(=O)Nc2ccc(NC(=O)c3cccs3)cc2)c1 | 10µM* | ?
CN1CCN(C(=O)CCn2c(=O)c3cccn3c3cccnc32)CC1 | -7% | -7%
COc1ccccc1NCc1cc(=O)oc2c(C)c(O)ccc12 | -11% | 1%
COc1ccc(CCN(C)C(=O)c2cnn(-c3nccc(-c4ccc(C)o4)n3)c2C)cc1OC | -17% | -11%
Cn1c(Cc2cccc3ccccc23)nnc1SCC(=O)N1CCN(c2cccc(Cl)c2)CC1 | ? | ?
CCOC(=O)/C=C(\C)Nc1cc(C)nn1-c1ccccc1 | -14% | -4%
Cc1ccc(NC(=O)CN2c3cccc4cccc(c34)S2(=O)=O)cc1S(=O)(=O)N1CCOCC1 | -9% | ?
CCOCCCn1c(=N)c(C(=O)NCc2cccnc2)cc2c(=O)n3ccccc3nc21 | 2% | 0%
COc1ccc(C(F)(F)F)cc1N/C=C/c1nnnn1-c1ccc(C)cc1 | -27% | 6%
COc1cccc(-c2cc(C(F)(F)F)nc(N3CCCCC3)n2)c1 | -16% | -3%
COc1ccc(CCC(=O)NCCOc2ccc(Cl)cc2)cc1 | -9% | -6%
CN1CCN(C(=O)C(=O)c2cn(CC(=O)N3CCCCCC3)c3ccccc23)CC1 | -2% | -8%
COCCNC(=O)c1cc(-c2cccs2)on1 | -2% | -28%
CN(C)CCNC(=O)c1ccc2nc(Cc3ccccc3)oc2c1 | -25% | -7%
COc1ccc(Cl)cc1NC(=S)NCc1cccnc1 | -20% | -29%
On1nnc2c3ccccc3c3ccccc3c21 | i | 9%
C/C(=N\Nc1c([N+](=O)[O-])c(C)nn1C)c1ccc(F)cc1F | i | -5%
COc1ccc(C(=O)NC(=S)N(C)Cc2ccccc2)cc1Br | -1% | -13%
CNC(=O)Oc1ccc2c(c1)C(=O)c1ccccc1CO2 | -13% | -8%
CCCCNC(=O)c1c(CSc2ccccc2)noc1C(=O)NCc1ccccc1 | -25% | -17%
CNC(=O)/C(C#N)=C/c1c(N2CC(C)OC(C)C2)nc2ccccn2c1=O (stereo not drawn) | 0% | -4%
CCCCN1C(=O)NC2NC(=O)NC21 (stereo not drawn) | -14% | 0%
O=C(CC1(O)CCCCC1)OC1CCCC1 | -14% | 1%
Cc1ccc(-n2cnc3scc(-c4cccs4)c3c2=O)cc1 | -14% | -23%
SMILES | Vaccinia mCherry | Vaccinia Venus
CN(C)c1ncc([N+](=O)[O-])cc1C(F)(F)F | -16% | -12%
O=C(CNS(=O)(=O)c1ccccc1)NCc1ccccn1 | -23% | -12%
CC1(C)CC(O)(CNCc2ccc3c(c2)OCO3)CCO1 (stereo not drawn) | 2% | 3%
CCc1nc2nc(C)c(NS(=O)(=O)c3ccc(Cl)s3)c(=O)n2[nH]1 | -11% | 0%
O=C(CC1Sc2ccccc2NC1=O)Nc1cccc(-c2nnc3n2CCCCC3)c1 (stereo not drawn) | 2% | -5%
CC1(C)C(=O)CC[C@@]2(C)C1=CCC1C2CC[C@]2(C)C(=O)CCC12 (stereo partly drawn) | -18% | 4%
O=C(CCc1nc2ccccc2c(=O)[nH]1)NCc1cccc(Cl)c1 | -21%[1.46 µM] | ?
C=CCN1C(=O)C2C(C(=O)NC)C3C=CC2(O3)C1C(=O)NCc1ccc(OC)cc1 (stereo not drawn) | -15% | -1%
CCOC1=NC(C(=O)O)c2ccccc2/C(=C(/C)Cl)N1 (stereo not drawn) | -15% | -12%
COC(=O)/C(=C\Nc1ccc(Oc2ccc(F)cc2F)nc1)NC(=O)c1ccccc1 | i | -2%
Cc1ccc(C(=O)Nc2cccnc2)cc1NC(=O)c1ccco1 | -10% | -10%
Cc1cccc(C)c1Nc1nnc(SCC(=O)c2ccc3c(c2)NC(=O)CO3)s1 | -12% | -13%
Cc1ccc(-n2ncc3c(Nc4ccc(Oc5ccccc5)cc4)ncnc32)c(C)c1 | -19% | -11%
O=C1COc2ccc(-c3csc(-c4ccc(F)cc4)n3)cc2N1 | -14% | -13%
N#CC1C(=O)NC(=O)C(C#N)C12CCCc1sccc12 (stereo not drawn) | i | -4%
CCOc1cc2sc(N3CCC(C(=O)Nc4ccc(C)cc4)CC3)nc2cc1Br | i | -18%
Cc1cccc(N2CCN(C(=O)CCS(=O)(=O)c3ccc4c(c3)NC(=O)C(C)S4)CC2)c1C (stereo not drawn) | i[7.34 µM] | -5%[7.34 µM]
COC(=O)C1=C(c2ccc(F)cc2F)C[C@@H]2CC[C@H]1N2C(=O)NC1Cc2ccccc2C1 | i | -22%
Cc1ccc(Oc2c(C(F)(F)F)oc3cc(OCC(=O)NC4CCCCC4)ccc3c2=O)cc1 | -24% | -13%
O=C(/C=C/c1ccc2c(c1)OCO2)N1CCN(c2ccc(Cl)cc2)CC1 | 0% | 1%
O=C(N/N=C\c1ccc([N+](=O)[O-])o1)C1COc2ccccc2O1 (stereo not drawn) | ? | ?
COc1cccc(-c2sc3ccccc3c2-c2ccc(OCCN3CCOCC3)cc2)c1 | i | -21%
O=C(/C=C/[C@H]1O[C@@H](n2ccc(=O)[nH]c2=O)[C@H](O)[C@@H]1O)NCCN1CCOCC1 | 24% | 0%
CCc1nc2c(OCCc3cccc(OC)c3)cccn2c1N(C=O)Cc1ccccc1 | i | -10%
Cc1ccc(CS(=O)(=O)Cc2ccc(C(=O)NCc3cccnc3)o2)cc1 | -3% | -16%
SMILES | Vaccinia mCherry | Vaccinia Venus
CCc1c(C)sc2c1CCN(C(=O)Nc1ccccc1C(=O)OC)C2c1ccc(F)cc1 (stereo not drawn) | -5% | -1%
CC(=O)c1ccc(N2CCN(C(=S)NCCCN(C)C)CC2)cc1 | -11% | -10%
Cc1cc(N(CCCl)CCCl)ccc1/C=N/N=C(\N)c1cnccn1 | i | -7%
NC(CCc1ccccc1)c1csc(NC(=O)NCCc2ccccc2)n1 (stereo not drawn) | -12% | -16%
COc1cccc(NC(=O)COc2cccc3c2CCNC3=O)c1 | -1% | -13%
COc1ccc(-c2cc(C(=O)Nc3ccc(F)cc3F)no2)cc1 | i | -6%
CC1(C(=O)NS(=O)(=O)c2cccc(C#N)c2)CCN1C(=O)c1cccc2ccccc12 (stereo not drawn) | -16% | -18%
Cc1ccc(Cn2nnc3c(=O)[nH]c(C4CCN(C(=O)Cc5ccccc5F)CC4)nc32)cc1 | -3% | -13%
O=C(Nc1cccc(-n2cnnn2)c1)c1ccco1 | -7% | -6%
O=C(CN1C(=O)c2ccccc2S1(=O)=O)NCCC1=CCCCC1 | · | -9%
CCc1ccccc1S(=O)(=O)Cc1ccc(C(=O)N2CCN(c3ccccn3)CC2)o1 | i | -4%
CCOc1ccc(C2C(C#N)=C(N)N(N(C)C)C3=C2C(=O)CCC3)cc1 (stereo not drawn) | -9% | -17%
O=c1cnc2cc([N+](=O)[O-])ccc2[nH]1 | i | -15%
Cc1ccc(N2CCN(C(=O)c3cccc([N+](=O)[O-])c3)CC2)cc1Cl | -9% | -5%
CC(=O)Nc1ccc(NS(=O)(=O)c2cc(Br)cc3c2N(C(=O)C2CC2)CC3)cc1 | -5% | -10%
C#CCOCCOCCOCCNc1nc(N2CCN(C(=O)[C@H](CCCCN)n3cc(CC(C)O)nn3)CC2)nc(N2CCN(C(=O)[C@H](CCCCN)n3cc(CC(C)O)nn3)CC2)n1 (stereo partly drawn) | i | -6%
CCCc1nnc(NC(=O)CCC(=O)N2CCC3(CC2)OCCO3)s1 | i | -12%
CC1=NNC(=O)C1Cc1ccc(F)cc1 (stereo not drawn) | -7% | -9%
Cc1ccc(NC2CC(=O)N(c3ccc(N4CCCCC4)cc3)C2=O)cc1 (stereo not drawn) | -8% | 1%
CCCCn1nnnc1C(c1ccccc1)N1CCN(C(=O)C2CCCO2)CC1 (stereo not drawn) | 14% | 9%
C[C@H](NC(=O)OC(C)(C)C)c1nnc(SCc2ccc(Cl)cc2Cl)o1 | -7% | -9%
CSc1ncc(Cl)c(C(=O)Nc2nnc(SC/C=C/c3ccccc3)s2)n1 | -15% | -13%
CC(=O)N/N=C/c1cc2c(cc1[N+](=O)[O-])OCO2 | -4% | -2%
CC[N+]1=C(C)C(C)(C)c2cc(C)ccc21 | 78%[activator] | 270%[activator]
OC[C@@H]1CN(Cc2cccnc2)C[C@H](n2cnc3c(N4CCN(c5ccccc5)CC4)ncnc32)O1 | -13% | -7%

Quoted at random: seven compounds from above, in no set order.
SMILES | Vaccinia mCherry | Vaccinia Venus
CC1=NNC(=O)C1Cc1ccc(F)cc1 (stereo not drawn) | -7% | -9%
COc1cccc(NC(=O)COc2cccc3c2CCNC3=O)c1 | -1% | -13%
CC[N+]1=C(C)C(C)(C)c2cc(C)ccc21 | 78%[activator] | 270%[activator]
CCOc1ccc(C2C(C#N)=C(N)N(N(C)C)C3=C2C(=O)CCC3)cc1 (stereo not drawn) | -9% | -17%
CSc1ncc(Cl)c(C(=O)Nc2nnc(SC/C=C/c3ccccc3)s2)n1 | -15% | -13%
NC(CCc1ccccc1)c1csc(NC(=O)NCCc2ccccc2)n1 (stereo not drawn) | -12% | -16%
CC(=O)Nc1ccc(NS(=O)(=O)c2cc(Br)cc3c2N(C(=O)C2CC2)CC3)cc1 | -5% | -10%

(more compounds)
SMILES | Vaccinia mCherry | Vaccinia Venus
CCOc1ccc2nc(SCC(=O)N3CCCCCC3)c(C#N)cc2c1 | ? | -28%
O=C(NC1C2CC3CC(C2)CC1C3)C1CCCCC1 (stereo not drawn) | -8% | -5%
Nc1nc(-c2ccc(Cl)cc2)nnc1-c1ccc(Br)cc1 | i | -2%
Cc1ccc(OCC(=O)Nc2ccc3nc(SCC(=O)N(C)c4ccccc4)sc3c2)cc1 | -18% | -28%
CCc1nc2ccc(C(=O)N3CCN(C(=O)c4ccco4)CC3)cn2c1N(C)Cc1nccs1 | 3% | -2%
N#C/C(=C\c1ccc(Cl)cc1)C(=O)Nc1cccnc1 | i | -13%
CC(=O)Nc1ccc(NC(=O)C2CCN(c3c(Cc4ccccc4)c(C)nc4ncnn34)CC2)cc1 | -10%[1.46 µM] | -4%
CC(C)CN1CCN=C1Nc1ccccc1 | -9% | -2%
CC12C=CC(=O)C=C1CCC1C3CCC(O)(C(=O)CO)C3(C)CC(O)C12F (stereo not drawn) | i | -9%
Cc1ccc(C)c(NC(=O)CN(C)C(=O)c2cc([N+](=O)[O-])ccc2N2CCOCC2)c1 | -12% | -9%
COc1ccc(CNC(=O)c2cnn(-c3ccc(OC)cc3)c2C2CCN(C(=O)OC(C)(C)C)CC2)cc1 | -23% | -22%
COc1ccc(Cl)cc1N(CC(=O)N1CCCC1)S(C)(=O)=O | -11% | -6%
CCn1c(C)cc(C(=O)CN2C(=O)c3ccccc3S2(=O)=O)c1C | -14% | -6%
Cc1cc(=O)[nH]c(SCc2cccc(F)c2)n1 | -14% | -3%
CCCC(C(=O)NC1CCCC1)N(Cc1cccs1)C(=O)c1snc(C(N)=O)c1N (stereo not drawn) | -3% | -2%
COC(=O)C1=C(c2cc3ccccc3s2)C[C@@H]2CC[C@H]1N2C(=O)NCCS(C)=O (stereo partly drawn) | -1% | -3%
Fc1cccc(-c2c(-c3ccccc3)ncc3cc(F)ccc23)c1 | -1% | -11%
COc1cccc(C(C(=O)NC2CCCC2)N2CCN(c3cc(C)ccc3C)CC2)c1OC (stereo not drawn) | -15% | ?
COc1ccccc1C(=O)n1nc(-c2ccccc2)nc1NCc1ccco1 | -11% | -6%
O=C(CN1C(=O)C2(SCC(=O)N2c2ccc(F)cc2)c2ccccc21)NC1CCCCC1 (stereo not drawn) | 6% | 13%
O=C(N/N=C\c1cc(Cl)ccc1O)c1ccc(S(=O)(=O)N2CCCCC2)cc1 | 13µM* | ?
Cc1cccc(C(=O)c2c(N)sc3c2CCC(C)C3)c1 (stereo not drawn) | -9% | -16%
CC=Cc1cc(OC)c2c(c1)C(C)C(c1ccc(O)c(OC)c1)O2 (stereo not drawn) | ? | -25%
Cc1ccc(-n2c(=O)c3ccc(C(=O)NCc4ccco4)cc3n(CC(=O)Nc3ccc(C)c(F)c3)c2=O)cc1 | -30% | ?
CC(NS(=O)(=O)OCC(Cl)(Cl)Cl)c1ccc(C(C)(C)C)cc1 (stereo not drawn) | 11µM* | 20µM*

Continued, overlapping the part above by 2 compounds.
SMILES | Vaccinia mCherry | Vaccinia Venus
Cc1ccc(-n2c(=O)c3ccc(C(=O)NCc4ccco4)cc3n(CC(=O)Nc3ccc(C)c(F)c3)c2=O)cc1 | -30% | ?
CC(NS(=O)(=O)OCC(Cl)(Cl)Cl)c1ccc(C(C)(C)C)cc1 (stereo not drawn) | 11µM* | 20µM*
Cc1c(/C=C(\CC(=O)O)c2nc3ccccc3s2)cc(C#N)n1C | -14% | 7%
CCOC(=O)N1CCN(C(=O)c2cccc(-n3c(=S)[nH]c4cc(Cl)ccc4c3=O)c2)CC1 | -14% | -6%
O=C(CN1CCN(c2ccc(Cl)cc2)CC1)Nc1ccc(Cl)c(C(F)(F)F)c1 | -5% | -4%
COc1cc(/C=N/NC(=O)c2cccc(NC(=O)c3ccccc3C)c2)ccc1O | -9% | 0%
CC1CCCN(Cc2nc3c(c(=O)n(C)c(=O)n3C)n2Cc2ccc(Cl)cc2)C1 (stereo not drawn) | -10% | -7%
COC(=O)[C@]12CCCCC=C1N(CCC1=CCCCC1)C(=O)[C@H](CC(=O)N1CCCCC1)C2 | 9% | 3%
COc1ccc([C@H]2C[C@H](O)[C@@H](n3cc(C4CC4)nn3)CN2CC2CCCCC2)cc1 | 4% | -13%
